miR-21 reporter: qHTS Assay for Modulators of miRNAs and/orActivators of miR-21; HeLa miR-21 FLuc reporter, luciferase, 48 h; Potency, µM (highest dose often 38.3 µM), for the others: at the top dose reporter change, positive = more light; 340,000 tested, under 10 active; active = well fitted rising curve with a large enough effect; inconclusive = small, poorly fitted or top-dose-only effect; inactive = no such curve, though single readings can be large or run the other way;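 also: % of control where 0% means no effect; miR-21 action dims this reporter so a rising signal means less miR-21 action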
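Using DMEM plus 10% FBS, HeLa miR-21-FLuc cells are incubated with test compounds (final up to about 40uM) for 48 hours; firefly luciferase signal is then imaged following reagent-mediated lysis.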
The depositor's hits bear a star; u = inconclusive; [ ] = dose if it differs, or a comment. A portion of the library (hit frequency here may not be typical).

SMILES	miR-21 reporter
Cc1ccc2nc(NCc3ccccc3Cl)c3nnnn3c2c1	-3%
O=C(Cn1ccn(-c2cccc(Cl)c2)c(=O)c1=O)c1ccc(F)cc1	-2%
COC(=O)c1scc(-c2ccc(C)cc2)c1S(=O)(=O)N1CCN(c2cccc(Cl)c2)CC1	9%
COc1cccc(CNC(=O)CCc2nc(-c3ccc(C)cc3)no2)c1	0%
CCOc1ccccc1NC(=O)Cn1c(=O)n(-c2ccccc2)c(=O)c2c1c1cc(C)ccc1n2C	-1%
CCOc1ccc(NC(=O)CSC2=Nc3ccccc3C3=NC(CC(=O)NCc4cccs4)C(=O)N23)cc1 (stereo not drawn)	-23%
COc1ccc(NC(=O)CCCS(=O)(=O)c2nc(-c3ccccc3OC)cc(C(F)(F)F)n2)c(OC)c1	u
Cc1ccc(C(=O)c2cn(Cc3ccccc3)c3nc(C)ccc3c2=O)cc1	-13%
Cc1ccc(N2C(=O)NC(NS(=O)(=O)c3ccc(Cl)cc3)(C(F)(F)F)C2=O)cc1C (stereo not drawn)	1%
COc1ccc(CCNC(=O)c2cnc3sc(N4CCCCC4)nn3c2=O)cc1OC	-3%
Cc1ccc(CNc2ncnc3c2nnn3C)cc1	-22%
COc1ccccc1NC(c1ccc(Cl)cc1)c1nnc(-c2cccc(F)c2)o1 (stereo not drawn)	1%
Cc1ccc(S(=O)(=O)c2cnc(SC(C)C(=O)Nc3ccccc3)[nH]c2=O)cc1 (stereo not drawn)	-2%
O=C(Nc1ccc(C(F)(F)F)cc1)C1CCCN(S(=O)(=O)c2cccc3cccnc23)C1 (stereo not drawn)	2%
COc1ccc(-c2cc(C(=O)Nc3sc4c(c3C(N)=O)CCC(C)C4)no2)cc1 (stereo not drawn)	0%
CCC(=O)N1CCc2cc(Br)cc(S(=O)(=O)CCC(=O)Nc3ccc(Cl)cc3)c21	6%
COc1cccc(C(=O)Nc2nc(-c3ccc(Br)cc3)ns2)c1	13%
Cc1cc(Cl)ccc1NC(=O)CCn1nc(C)c2c(C)n(-c3ccccc3)nc2c1=O	3%
Cc1ccccc1C(=O)Nc1cc2c(cc1N1CCCCC1)n(C)c(=O)n2C	9%
Cn1cc(-c2cc3n(n2)CCC(=O)N3CCCC(=O)NCc2ccc(Cl)cc2)c2ccccc21	16%
Cc1ccc2c(Sc3ccccc3)c(C(=O)NCc3ccccc3F)[nH]c2c1	1%
Cc1cc(C)c2sc(N(Cc3cccnc3)C(=O)CCS(=O)(=O)c3ccccc3)nc2c1	2%
COc1ccc(C(=O)CN2CCN(S(=O)(=O)c3ccc(C(C)C)cc3)CC2)cc1	13%
CCc1cccc(C)c1Nc1c(-c2cccc(O)c2)nc2sccn12	8%
CCCn1c(=O)n(-c2ccccc2Cl)c(=O)c2sc3ccccc3c21	-21%
CCOc1ccc(NC(=O)CSc2oc(-c3ccccc3)nc2S(=O)(=O)c2ccc(Cl)cc2)cc1	15%
COc1ccccc1CNC(=O)C1CCN(c2nc3ccc(Cl)cc3[nH]2)CC1	5%
CCOc1ccc(S(=O)(=O)N(CC(=O)Nc2ccc(OC)cc2OC)c2ccccc2)cc1	0%
Cc1ccc(Nc2nc3nonc3nc2Nc2cccc(C(F)(F)F)c2)cc1Cl	u
O=C(Cn1c(=O)nc(-c2ccccc2)c2ccccc21)Nc1ccc(Cl)cc1F	3%
COc1ccccc1CNC(=O)C1CCN(Cc2cc3ccccc3n2Cc2cccc(C)c2)CC1	15%
CCN(CC)CCNC(=O)CSc1nc2nc(C)c(Cc3ccccc3)c(C)n2n1	-3%
Cc1ccc(CN(C(=O)COc2ccc(Cl)c(C)c2)c2ccccn2)o1	-25%
Cc1ccc(C)c(CSc2ccc3nnc(CCNS(=O)(=O)c4ccccc4)n3n2)c1	8%
COc1ccc(N2CCN(c3ncnc4c3cnn4-c3ccc(F)cc3)CC2)cc1	-1%
Cc1ccc(OCC(=O)Nc2nnc(S(=O)(=O)N3CCc4ccccc43)s2)cc1	-2%
Cc1ccc2oc(-c3ccc(C)c(NC(=O)/C=C/c4ccc(Cl)cc4)c3)nc2c1	-62%
O=C(NCc1cccc(Cl)c1)c1cnc(N2CCCCC2)c2ccccc12	-10%
COc1ccc(OC)c(CCNC(=O)CCCn2c(=O)c3cccn3c3ccc(F)cc32)c1	-5%
O=C(Nc1ccc(Br)cc1F)c1cc2nc(-c3ccco3)cc(C(F)(F)Cl)n2n1	0%
COc1cccc(CNC(=O)CN2CCCN(Cc3ccccc3)S2(=O)=O)c1	3%
Cc1nc(SC(C)C(=O)Nc2ccccc2C)cc(-c2ccccc2)n1 (stereo not drawn)	-1%
CCN(CC)CCCNC(=O)C1CCN(S(C)(=O)=O)CC1	1%
O=C(NC1CCCCCC1)C1c2ccccc2C(=O)N1Cc1ccc(F)cc1 (stereo not drawn)	-5%
O=C(NCc1ccc2c(c1)CCN2C(=O)c1ccc(F)cc1)c1ccc(Br)o1	u
CCOC(=O)Cc1ccc(NC(=O)N(C(C)C)C2CCN(C(C)=O)CC2)cc1	5%
CCC(=O)N1CCc2cc(CNC(=O)Cc3ccc(F)cc3)ccc21	-24%
O=C(O)c1ccc(C2Nc3ccccc3-c3nnc(SCc4ccc(Cl)cc4)nc3O2)cc1 (stereo not drawn)	-11%
Cc1noc(-c2ccc(N(C)Cc3ccccc3)c([N+](=O)[O-])c2)n1	-17%
CCCC[C@]12Cc3ccccc3C(O1)c1c(c3ccccc3oc1=O)O2	-1%[7.66 µM]
Cc1ccccc1CN1C(=O)c2ccccc2Sc2ccc(C(=O)NCc3cccs3)cc21	8%
CCn1cc(C(=O)NCCc2ccc(C)cc2)c(=O)c2cc(S(=O)(=O)N3CCc4ccccc4C3)ccc21	-7%
O=C(c1cccc(Cl)c1)n1nc(-c2ccco2)nc1NCc1cccs1	-28%
Cc1cccc(OCC(=O)N(Cc2ccc(C(C)(C)C)cc2)Cc2ccco2)c1	u
Cc1nc(-c2ccc(F)cc2)sc1CCNC(=O)c1ccc(OC(C)C)cc1	-4%
Cc1ccc(OCc2nc(-c3ccc(C(=O)N4CCN(c5cccc(C(F)(F)F)c5)CC4)cc3)oc2C)cc1	1%
CCc1ccc(C(=O)c2cn(CC(=O)Nc3ccc(OC)cc3)c3cc4c(cc3c2=O)OCO4)cc1	8%
Cc1ccc(-c2nc3c(cnn3-c3ccccc3)c(=O)n2-c2ccc(Cl)cc2)cc1	-8%
O=S1(=O)c2ccccc2N(Cc2ccccc2Cl)c2ccccc21	9%
COc1cc(/C=C/c2nc(C#N)c(NC(C)c3ccccc3)o2)cc(OC)c1OC (stereo not drawn)	19%

Following part:
SMILES	miR-21 reporter
Cc1ccc([N+](=O)[O-])c(Oc2ncnc3c2oc2ccccc23)c1	-8%
COC(=O)c1sc2cccc(F)c2c1S(=O)(=O)NCc1ccc(Cl)cc1	-2%
Cc1cc(O)c(C(c2cccc(F)c2)N2CCC(C)CC2)c(=O)n1Cc1ccco1 (stereo not drawn)	-6%
O=C(c1ccc(F)cc1)n1nc(-c2cccnc2)nc1NCc1ccccc1	-11%
CCOCCn1ccc2c(OCC(=O)Nc3cc(C)cc(C)c3)cccc2c1=O	-2%
COc1ccc(CN2C(=O)N(c3ccc(C)cc3)C(=O)C2CC(=O)Nc2ccccc2)cc1OC (stereo not drawn)	-19%
CCCOc1ccc(C(=O)Nc2cc3c(cc2N2CCCCC2)n(C)c(=O)n3C)cc1	-1%
Cc1c(Cl)cccc1-c1ccc(CNc2ccc3[nH]c(=O)[nH]c3c2)o1	-4%
O=C(Nc1ccc2nc(SCC(=O)N3CCCc4ccccc43)sc2c1)c1ccc(F)cc1	u
CCCCC(=O)NC1(C(F)(F)F)C(=O)Nc2c1c(=O)[nH]c(=O)n2-c1ccc(F)cc1 (stereo not drawn)	-2%
CCOC(=O)c1c(S(=O)(=O)N2CCC(C(=O)NCc3ccccc3OC)CC2)c(C)n(C)c1C	4%
Cc1ccc2onc(CNC(=O)N3CCN(c4cc(Cl)ccc4C)CC3)c2c1	23%
O=C(Cn1ncc2c(Cl)cccc21)NCc1cccc(Br)c1	-5%
COc1cccc(NC(=O)c2oc3ccccc3c2NC(=O)c2ccc(F)c(F)c2)c1	-5%
Cc1ccc(NC(=O)Cn2c(=O)n(Cc3ccc4c(c3)OCO4)c(=O)c3oc4ccccc4c32)cc1C	5%
Cc1cccc(C)c1OC(=O)CSc1nnc(-c2ccc3c(c2)OCO3)o1	-1%
CCCCc1nn2c(=O)cc(COC(=O)c3ccc(NC(=O)C4CCCCC4)cc3)nc2s1	-1%
O=C(CSc1nc2c(c(=O)[nH]1)CN(Cc1ccc(F)cc1)CC2)Nc1cccc(C(F)(F)F)c1	18%
O=C(Cn1c(=O)n(CC2CCCO2)c(=O)c2ccccc21)Nc1cccc(Cl)c1 (stereo not drawn)	1%
COc1cccc(CNCCSc2nnnn2C)c1OCc1ccc(Cl)cc1Cl	u
CCCn1c(CNC(=O)c2ccc(F)cc2)nc2ccccc21	2%
COC(=O)C1CCN(S(=O)(=O)c2cc3c4c(c2)CC(=O)N4CCC3)CC1	-2%
Cc1cccc(-c2nc(CN3CCCC(C(=O)NCc4ccc(Cl)cc4)C3)c(C)o2)c1 (stereo not drawn)	0%
Cc1ccc(C(=O)Nc2ccc3oc(-c4cc(Br)ccc4Cl)nc3c2)cc1	-4%
COc1ccc(C)cc1NC(=O)C1CCN(S(=O)(=O)Cc2ccccc2)CC1	0%
CCOC(=O)c1c(C)[nH]c(C)c1S(=O)(=O)N1CCCC(C(=O)Nc2ncccc2C)C1 (stereo not drawn)	1%
Cc1ccc(NC(=O)CSc2ncc3c(n2)-c2ccccc2N(Cc2cccc(F)c2)S3(=O)=O)cc1F	-2%
COc1ccc(NC(=O)CSc2nc3ccccc3n2CC(=O)N(C)c2ccc(F)cc2)cc1	0%
CCCCNC(=O)c1ccc2c(c1)N(Cc1ccc(F)cc1)C(=O)c1ccccc1S2=O (stereo not drawn)	-1%
Cc1ccc2c(c1)C(c1ccccc1)N(C(=O)c1ccc(S(=O)(=O)N3CCCCC3)cc1)CC(=O)N2 (stereo not drawn)	10%
CCCN1C(=O)c2[nH]nc(-c3ccc(OC)cc3)c2C1c1ccccn1 (stereo not drawn)	-20%
Cc1ccccc1CSc1nnc2[nH]c(=O)cc(-c3ccccc3)n12	-5%
Cc1nn(CC(=O)NCc2ccc(Cl)cc2)c(=O)c2cc3sccc3n12	0%
CC(=O)c1ccc(Nc2ccc3cc(S(=O)(=O)N4CCCC4)ccc3n2)cc1	9%
Cc1ccccc1NC(=O)c1ccc(NC(=O)N2CCSc3ncccc32)cc1	-19%
CCc1ccc(C(=O)c2cn(CC(=O)Nc3ccc(OC)c(OC)c3)c3ccc(C)cc3c2=O)cc1	4%

By substructure: the compounds so far with a nitro group on carbon.
SMILES	miR-21 reporter
Cc1noc(-c2ccc(N(C)Cc3ccccc3)c([N+](=O)[O-])c2)n1	-17%
Cc1ccc([N+](=O)[O-])c(Oc2ncnc3c2oc2ccccc23)c1	-8%

A different layout for part of the listing above.
molecule | miR-21 reporter
CCCCNC(=O)c1ccc2c(c1)N(Cc1ccc(F)cc1)C(=O)c1ccccc1S2=O (stereo not drawn) | -1%
Cc1ccc2c(c1)C(c1ccccc1)N(C(=O)c1ccc(S(=O)(=O)N3CCCCC3)cc1)CC(=O)N2 (stereo not drawn) | 10%
CCCN1C(=O)c2[nH]nc(-c3ccc(OC)cc3)c2C1c1ccccn1 (stereo not drawn) | -20%
Cc1ccccc1CSc1nnc2[nH]c(=O)cc(-c3ccccc3)n12 | -5%
Cc1nn(CC(=O)NCc2ccc(Cl)cc2)c(=O)c2cc3sccc3n12 | 0%
CC(=O)c1ccc(Nc2ccc3cc(S(=O)(=O)N4CCCC4)ccc3n2)cc1 | 9%

More entries.
SMILES	miR-21 reporter
COc1cccc(N2CCN(C(=O)CN3CCSc4ccc(S(=O)(=O)N(C)C)cc43)CC2)c1	0%
Cc1ccccc1NC(=O)Cn1c(=O)n(Cc2ccc3c(c2)OCO3)c(=O)c2ccccc21	-18%
Cc1ccc(C)c(Cn2cnc3ccccc3c2=O)c1	0%
COc1cccc(CNC(=O)c2cc3cccc4c3n2CC(C)S4)c1OC (stereo not drawn)	17%
O=C1Nc2ccccc2Oc2cc(Oc3ccccc3)ccc21	-25%
CC(C)Oc1ccc(C(=O)N2CCN(c3nc4c(F)cc(F)cc4s3)CC2)cc1	0%
CCOC(=O)c1c(C)n(-c2ccccc2)c2ccc(OC(=O)c3c(F)cccc3F)cc12	-10%
CCCCNC(=O)c1ccc2c(c1)NC(=O)C(CS(=O)(=O)Cc1ccc(C)cc1)N2 (stereo not drawn)	-11%
O=C(NCCc1csc(-c2ccc(F)cc2)n1)c1cccc(F)c1	30%
COc1ccc(-c2nc(SCC(=O)NCC3CCCO3)c(-c3ccc(C)cc3)[nH]2)cc1OC (stereo not drawn)	8%
Cc1ccc(C(C)C)c(OCC(=O)N2CCC(c3nc4ccccc4o3)CC2)c1	u
CCOc1ccccc1-n1nnc(-c2nsc(NC(=O)c3ccc(C)cc3)n2)c1C	16%
Cc1cccc(CS(=O)(=O)CC2Nc3ccc(C(=O)NCc4ccccc4)cc3NC2=O)c1 (stereo not drawn)	-13%
COc1ccc(N2CCN(C(=O)c3cnn(-c4ccc(OC)cc4)c3C3CCN(C(=O)OC(C)(C)C)CC3)CC2)cc1	-2%

An excerpt from above in order of SMILES length, largest number first:
SMILES	miR-21 reporter
COc1ccc(N2CCN(C(=O)c3cnn(-c4ccc(OC)cc4)c3C3CCN(C(=O)OC(C)(C)C)CC3)CC2)cc1	-2%
Cc1cccc(CS(=O)(=O)CC2Nc3ccc(C(=O)NCc4ccccc4)cc3NC2=O)c1 (stereo not drawn)	-13%
CCCCNC(=O)c1ccc2c(c1)NC(=O)C(CS(=O)(=O)Cc1ccc(C)cc1)N2 (stereo not drawn)	-11%
Cc1ccc(C(C)C)c(OCC(=O)N2CCC(c3nc4ccccc4o3)CC2)c1	u
O=C(NCCc1csc(-c2ccc(F)cc2)n1)c1cccc(F)c1	30%
Cc1ccc(C)c(Cn2cnc3ccccc3c2=O)c1	0%

High-throughput results as filed in PubChem BioAssay.
